NPYLR7 agonist – agonists of mosquito NPYLR7 receptor, primary screen, cell-based, Aedes aegypti, calcium fluorescence, mosquito biting behavior. Aedes aegypti neuropeptide Y-like receptor 7 (NPYLR7). HEK293T NPYLR7/Galpha15, GCaMP6s calcium fluorescence. activation, % at 10 µM. 270,000 tested, 0.15% active. AID 1259423, 2018; in the data active = activation above about 40%;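 also: 0% = vehicle and 100% = reference agonist at the receptor; some compounds past the cut are filed as inactive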
NPYLR7 agonist max-min – recorded beside NPYLR7 agonist, whose call it bears; activation, %; measured here: Max-Min RFU normalised activation; some inactives read as strong as hits;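 span of the calcium signal over five minutes; 0% = vehicle and 100% = native peptide agonist; compound fluorescence can raise it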
An asterisk follows results filed as active; & = joins results of further samples. Some of the compounds tested; the hit share may differ from the screen's.

SMILES	NPYLR7 agonist	NPYLR7 agonist max-min
CC1(C)CC2(CC(C)(C)N1)OC(=O)N(C1CC1)C2(C)O (stereo not drawn)	4	1
Cc1ccccc1N1C(=O)CSC1c1cccc(NC(=O)Nc2ccccc2F)c1 (stereo not drawn)	6	14
O=C(c1cc(F)ccc1F)C1CCCN(Cc2cccc3cnccc23)C1 (stereo not drawn)	-6	-8
Cc1ccccc1NC(=O)NCCN1CCN(c2nc(Cc3ccc(F)cc3)ns2)CC1	-3	9
CCc1nc(C)nc(N2CCN(C(=O)NC(C)(C)C)CC2)c1Cc1ccc(F)cc1	12	18
CCOc1cccc(CN2CCCC(CNC(=O)c3cccc(OC)c3OC)C2)c1 (stereo not drawn)	-6	-9
CC(C)(C)C(=O)C=C1Nc2ccccc2SC1(O)CC(=O)C(C)(C)C (stereo not drawn)	1	-2
O=C(NCC1(c2ccc(F)cc2)CCCC1)Nc1nncs1	6	5
COc1ccc(S(=O)(=O)NCC2CCCN(C(=O)c3cccnc3C)C2)cc1 (stereo not drawn)	-2	-2
Cc1ccc(C(C)NC(=O)c2ccc(N(C)C)cc2)o1 (stereo not drawn)	-10	-9
CCOc1ccc(-c2ccnc(N3CCN(S(=O)(=O)c4ccc(Cl)cc4)CC3)n2)cc1	5	4
Cc1[nH]n(-c2ccccc2)c(=O)c1N=Nc1cc(Cl)ccc1Cl	-7	-11
CCC1CC(=O)NCc2nc3sc(C)cn3c21 (stereo not drawn)	12	3
O=C(/C=C/Nc1ccc(Cl)c([N+](=O)[O-])c1)c1ccc(Cl)cc1Cl	5	9
CCCn1ccnc1CN1CCN2C(=O)CN(C)C(=O)C2C1 (stereo not drawn)	8	6
CC(Sc1nn(-c2ccccc2)c(=S)s1)C(=O)N(C)C (stereo not drawn)	6	4
O=C(/C(=C/c1ccc([N+](=O)[O-])cc1)n1cncn1)c1ccc(Cl)cc1Cl	20	16
CC1CCCN1CC(=O)NCC1(c2ccc3c(c2)OCO3)CC1 (stereo not drawn)	4	3
CS(=O)(=O)c1ccc(Cl)c(S(=O)(=O)Oc2cccc(F)c2)c1	-5	-6
CC1(C)C2(c3nc(Cc4c(F)cccc4Cl)no3)CC[C@@]1(C)C(=O)O2	17	9
CS(=O)(=O)c1ccc([N+](=O)[O-])cc1	7	11
COc1ccc(S(=O)(=O)N(CC(=O)N(Cc2ccccc2)Cc2cccn2Cc2ccc(F)cc2)CC(C)C)cc1	2	13
CC(C)(C)c1ccc(C(=O)Nc2nnc(-c3cccnc3)o2)cc1	5	0
CCOC(=O)C(CC)n1nc(CC)n2c(cc3oc(C)cc32)c1=O (stereo not drawn)	0	-2
CN(Cc1cccs1)S(=O)(=O)c1ccc(C(=O)O)cc1	2	1
CC1(Cc2ccccc2OC(F)(F)F)C(=O)Nc2ccc(-c3cccc(C(F)(F)F)c3)cc21 (stereo not drawn)	-2	10
COc1cc(C)nc(Sc2nc(C)c(C)o2)n1	-1	-3
Cc1ccc(NC(=O)Cn2nc3c(=O)n(-c4ccc(Br)c(C)c4)ccn3c2=O)cc1C	9	8
CCS(=O)(=O)N(CC(N)=O)c1ccc2c(c1)OCO2	11	6
Nc1nc(-c2ccc(-c3ccccc3CN3CCOCC3)cc2)cs1	4	2
CC1(C(=O)NS(=O)(=O)Cc2cccc(Cl)c2)CCN1C(=O)CC1CC1 (stereo not drawn)	-1	-2
CCOc1ccc(NC(=O)N(CCC(C)C)Cc2ccc(OS(C)(=O)=O)cc2)cc1	15	8
COc1ccc(OCc2cc(C(=O)N3CC4C[C@@H]5CC3C[C@H](C4)C5)no2)c(Cl)c1	0	-2
CC(C)(C)NCC(=O)Nc1c2c(nc3c1CCC3)CCC2	9	7
CC(C)C(NS(=O)(=O)c1ccccc1C#N)c1ccccc1 (stereo not drawn)	-8	-10
CCN(C)c1nc(C)nc2c1CN(C(=O)c1c(OC)cccc1OC)CC2	-7	-3
COc1ccc(CCNC(=O)CCn2c(=O)sc3ccccc32)cc1OC	2	0
CC1=C(C(=O)OC2CCCC(C)C2)C(c2ccc(O)c([N+](=O)[O-])c2)NC(=O)N1 (stereo not drawn)	-8	-16
CC(C)N(C(=O)CSc1n[nH]c(-c2ccccc2F)n1)C(C)C	-2	-2
N#Cc1cccc(OC2CC3CCC(C2)N3C(=O)c2ccc(CSc3nc4ccccc4o3)cc2)c1 (stereo not drawn)	4	13
COC(=O)C1CCN(S(=O)(=O)c2c(C)n(C)c(=O)n(C)c2=O)CC1	4	4
O=C(NCCn1nc(-c2ccncc2)ccc1=O)c1cccc2ccccc12	9	-1
Cc1noc(C)c1CSCC(=O)N1CCN(c2ccc(C#N)cn2)CC1	-2	-4
CC(=O)c1ccc(NS(=O)(=O)c2c(C)c(C)c(C)c(C)c2C)cc1	-1	-2
Cc1cc(N2CCN(CC(C)C)C(CCO)C2)nc(-c2cccnc2)n1 (stereo not drawn)	20	6
CN1C2CCC1CC(NC(=O)c1nn(C)c3ccccc13)C2 (stereo not drawn)	2	-33
Cc1cc(F)ccc1S(=O)(=O)Nc1cc(Cl)ccc1Cl	3	2
Cc1cccc(-n2nc(-c3ccc(C)c(C)c3)cc2C(=O)O)c1	11	22
Cc1cc(C(=O)NCCc2nnc3c(C(F)(F)F)cccn23)nn1C	8	8
COc1cccc(-c2ccc(O)cc2)n1	16	10

Quoted at random: two entries already listed, in no set order.
SMILES	NPYLR7 agonist	NPYLR7 agonist max-min
Cc1cccc(-n2nc(-c3ccc(C)c(C)c3)cc2C(=O)O)c1	11	22
CC(=O)c1ccc(NS(=O)(=O)c2c(C)c(C)c(C)c(C)c2C)cc1	-1	-2

Following part:
SMILES	NPYLR7 agonist	NPYLR7 agonist max-min
COCCc1ncc(CN2CCN(c3ccccc3OC)C(C)(C)C2)cn1	1	-8
COc1cccc(-c2cc(C(=O)N3CCN(c4ccccc4Cl)CC3)n3nc(-c4ccccc4)cc3n2)c1	3&5	3&19
CC(C)CN1CCC(CNC(=O)c2ccc(NC3CCN(C)CC3)nc2)C1 (stereo not drawn)	5	3
CN(C(=O)c1cccc(-n2cccn2)c1)C1CCCN(CCCc2ccccc2)C1 (stereo not drawn)	8	-4
CCOC(=O)c1sc(NC(=O)COC(=O)C2CCC2)c(C(=O)OCC)c1C	2	4
Cc1ccc(-c2noc(Cn3ccn4nc(-c5ccc(C)c(C)c5)cc4c3=O)n2)cc1	-3	-6
Cc1ccccc1C(NC(=O)C1CCN(Cc2cccc(C(F)(F)F)c2)CC1)c1cnccn1 (stereo not drawn)	1	-5
COc1ccc(NC(=O)CSc2nc3c(-c4ccccc4)c[nH]c3c(=O)n2C(C)C)cc1	-1	-6
CCOCCn1ccc2c(NC(=O)c3c(F)cccc3C(F)(F)F)c(OC(=O)N(CC)CC)ccc21	2	-1
N#CC1C(=N)Oc2nc[nH]c(=O)c2C1c1cccnc1 (stereo not drawn)	-2	-7
CCN(CC)S(=O)(=O)c1ccc(OC)c(N2CCN(C(=O)c3ccccc3OC(F)(F)F)CC2)c1	11	19
CC1(C)C2(C(=O)N3CCC(Cc4ccc(-c5ccccc5)cc4)CC3)CC[C@@]1(C)C(=O)O2	2	4
CCC(C)N(Cc1ccncc1)C(=O)Cc1nc(C)sc1C (stereo not drawn)	-3	4
COc1cc(COc2cccc3ccc(N4CCC(C(N)=O)CC4)nc23)cc(OC)c1	7	7
CC(=NNC(=S)NC(C)C)c1ccc2c(c1)Nc1ccccc1S2	-3	-2
NC(=O)c1nc(-c2ccccc2O)nc2c1[nH]c(=O)n2-c1ccc(F)cc1	2	0
O=C(CCN1CCSC1=O)OCc1nc2ccccc2o1	12	6
c1ccc(-c2nc3ccccc3nc2N2CCCC2)cc1	-2	-3
O=C1CC(c2ccnn2-c2ccccc2)c2ccc(N3CCOC3=O)cc2N1 (stereo not drawn)	-3	-4
COc1ccc(C)cc1S(=O)(=O)NC1CC2CCC(C1)N2Cc1ccoc1 (stereo not drawn)	-10	3
CC1(C)CC(=O)C2C(=NC3=C(C(=O)CC(C)(C)C3)C2c2cccc([N+](=O)[O-])c2)C1 (stereo not drawn)	-3	-5
CCOC(=O)c1c[nH]c2c(Cl)cccc2c1=O	2	5
CCOC(=O)N1CCN(C2CCCN(Cc3cc(Cl)c(O)c(OC)c3)C2)CC1 (stereo not drawn)	-5	-7
COc1cc(NC(=O)c2cc(=O)c(OCc3ccc(F)cc3)c[nH]2)cc(OC)c1OC	-4	-5
Cc1ccc(S(=O)(=O)NC(=O)C2(C)CCN2C(=O)c2ccc(C(F)(F)F)nc2C)nc1 (stereo not drawn)	3	4
CCSc1nnc(NC(=O)c2cccnc2)s1	5	1
Cc1noc(C)c1C1CCCN1C(=O)c1scc2c1OCCO2 (stereo not drawn)	5	4
Cc1nc2ncc3c(=O)n(-c4ccc(Cl)cc4Cl)ccc3n2n1	3	3
COCCOc1nc(-c2ccc(C)cc2)n(-c2ccc(N)cc2)n1	-4	-14
CCc1nc(N(CCC(=O)NC(C)CC)Cc2ccco2)c2ccccc2n1 (stereo not drawn)	-1	-1
CC(C)NC(=O)C1(C)CCN1Cc1ccc(Cl)cc1 (stereo not drawn)	-2	-1
CC(=O)Oc1ccccc1Cn1c(C)c(C(=O)N(C)Cc2ccc(F)cc2)sc1=O	-8	-2
CC(C)(C)c1ccc(-c2ncccc2OC(=O)C23CC4CC(CC(C4)C2)C3)cc1	2	-2
CCC(C)N(Cc1ccc(OS(C)(=O)=O)cc1)C(=O)C(c1ccccc1)c1ccccc1 (stereo not drawn)	6	10
CCSCCn1c(=O)n(C2CCCCC2)c2ncc(C(=O)O)cc21	-5	-7
COc1ccccc1C(=O)N1CCc2ccccc2C1c1ccc(F)cc1 (stereo not drawn)	8	4
Cc1noc(C)c1CNC(=O)CN1C(=O)N(C)Cc2ccccc21	1	-2
Cc1cc(C)n(CCNC(=O)C(=O)N2c3ccccc3CC2C)c(=O)n1 (stereo not drawn)	1	0
CCOC(=O)Cn1c(C2CC(=O)N(c3ccc(CC)cc3)C2)nc2ccccc21 (stereo not drawn)	-2	-6
O=C(c1cccc(-n2cccn2)c1)N(CC(F)(F)F)C1CC1	1	0
C=CCNC(=O)C1CCCN1S(=O)(=O)c1ccc(Br)s1 (stereo not drawn)	4	0
CCN1CCCC1CNc1nc(-c2ccc3c(c2)CCCN3S(C)(=O)=O)cs1 (stereo not drawn)	8	5
COc1ccc(Nc2c([N+](=O)[O-])ccc3c2=NC2(CCCCC2)N=3)cc1	-9	-14
C[C@H](C(=O)N[C@H]1CCc2ccccc21)N1Cc2ccc(Nc3ncccn3)nc2C1=O	-2	-2
COCNc1nc(N(C)C)nc(-n2cnc(SC)n2)n1	1	-9
Cc1ccc(OCC(=O)NNC(=O)COc2ccccc2)cc1	4	-4
CN1CCCCC1C(=O)NNC(=O)c1ccccc1Cl (stereo not drawn)	27	15
COC(=O)C1=C(C)N=c2s/c(=C/c3cccs3)c(=O)n2C1c1ccc(OC(C)=O)cc1 (stereo not drawn)	0	-2
O=C(CC1CSc2nc3c(c(=O)n21)CCCC3)NCc1ccccc1Cl (stereo not drawn)	-2	-2
CC(=O)Nc1cccc(NC(=O)c2ccc(C(F)(F)F)cc2)c1	7	2
(cont.)
SMILES	NPYLR7 agonist	NPYLR7 agonist max-min
CC(NC(=O)CN1CCCC1c1ccc2c(c1)OCCCO2)c1ccccc1 (stereo not drawn)	-4	-8
Cc1onc(-c2ccccc2Cl)c1C(=O)Nc1ccc(O)c2c1C(=O)c1ccccc1C2=O	-6	-10
Cc1occc1C(=O)NNS(=O)(=O)c1ccc(Br)s1	3	3
CCOC(=O)N1CCN(Cc2ccc3c(c2)CN(C(=O)Cn2ccc(C)n2)CCO3)CC1	5	4
Cc1c(C(=O)O)sc(S(=O)(=O)N2CCN(C(=O)C(C)(C)C)CC2)c1C(=O)O	1	0
COC(=O)C1(C(F)(F)F)N=C2Sc3ccccc3N2C(=O)N1 (stereo not drawn)	2	69
CC(C)c1ccc(CN2CCC(N3CCC(C(=O)N4CCCC4)CC3)CC2)cc1	17	1
CCOC(=O)C1CCN(S(=O)(=O)c2ccc3oc(=O)ccc3c2)CC1	4	2
Cc1ccc(Cc2nsc(N3CCCN(C(=O)Nc4ccc(F)c(Cl)c4)CC3)n2)cc1	-1	2
Cc1oc(CSCc2cc(C(=O)O)c(C)o2)cc1C(=O)O	10	7
COc1cccc(COc2coc(CN3CCCN(S(=O)(=O)c4ccc(Cl)cc4Cl)CC3)cc2=O)c1	17	8
CN(C)CCCN(C)C(=O)c1nc(SCc2ccc(Cl)cc2)n2ccccc12	6	-1
CN(C(=O)c1ccc(OC2CCN(Cc3ccccn3)CC2)cc1)C1CCOCC1	22	12

Already shown: 15 of the compounds above.
SMILES	NPYLR7 agonist	NPYLR7 agonist max-min
O=C(CC1CSc2nc3c(c(=O)n21)CCCC3)NCc1ccccc1Cl (stereo not drawn)	-2	-2
CC(=O)Nc1cccc(NC(=O)c2ccc(C(F)(F)F)cc2)c1	7	2
CC(NC(=O)CN1CCCC1c1ccc2c(c1)OCCCO2)c1ccccc1 (stereo not drawn)	-4	-8
Cc1onc(-c2ccccc2Cl)c1C(=O)Nc1ccc(O)c2c1C(=O)c1ccccc1C2=O	-6	-10
Cc1occc1C(=O)NNS(=O)(=O)c1ccc(Br)s1	3	3
CCOC(=O)N1CCN(Cc2ccc3c(c2)CN(C(=O)Cn2ccc(C)n2)CCO3)CC1	5	4
Cc1c(C(=O)O)sc(S(=O)(=O)N2CCN(C(=O)C(C)(C)C)CC2)c1C(=O)O	1	0
COC(=O)C1(C(F)(F)F)N=C2Sc3ccccc3N2C(=O)N1 (stereo not drawn)	2	69
CC(C)c1ccc(CN2CCC(N3CCC(C(=O)N4CCCC4)CC3)CC2)cc1	17	1
CCOC(=O)C1CCN(S(=O)(=O)c2ccc3oc(=O)ccc3c2)CC1	4	2
Cc1ccc(Cc2nsc(N3CCCN(C(=O)Nc4ccc(F)c(Cl)c4)CC3)n2)cc1	-1	2
Cc1oc(CSCc2cc(C(=O)O)c(C)o2)cc1C(=O)O	10	7
COc1cccc(COc2coc(CN3CCCN(S(=O)(=O)c4ccc(Cl)cc4Cl)CC3)cc2=O)c1	17	8
CN(C)CCCN(C)C(=O)c1nc(SCc2ccc(Cl)cc2)n2ccccc12	6	-1
CN(C(=O)c1ccc(OC2CCN(Cc3ccccn3)CC2)cc1)C1CCOCC1	22	12

Source: PubChem BioAssay
